Bioassay records (PubChem BioAssay)
MITF inhib = inhibitors of MITF | TRPM1 promoter luciferase, luminescence, 24 h | inhibition, % (concentration not given with the values) | 0.28% of 37,000 active | AID 2240;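 active = most replicates at 85% or more, or half of them and the mean; inconclusive = half reach 85% but not the mean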;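 note: human melanocyte line stably carrying TRPM1 promoter luciferase reporter; 0% = vehicle wells and 100% = a positive control; the first replicate is given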
YB-1 expr inh = YB-1 expression inhibition | 0.37% of 30,000 active | AID 434959 | U2OS, qRT-PCR YB-1 vs CDIP delta delta Cp, 16 h; stronger effect = higher value; zero = DMSO, each unit about twofold | delta delta Cp (YB-1 minus CDIP) (test concentration not listed);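 active = delta delta Cp rounded down to an integer at or above 3, about 3 SD of DMSO wells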;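 note: higher means less YB-1 transcript or more CDIP transcript relative to DMSO; stock transfer was 100 nL into about 100 µL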
Hedgehog inh = Sonic Hedgehog pathway inhibition; Shh-LIGHT2 Gli-luciferase reporter, 30 h; inhibition, % (test concentration not listed); 2.1% of 22,000 active;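 active = replicate mean of 65% or more; inconclusive = mean lower but half the replicates past it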;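 note: pathway switched on by Shh-conditioned medium diluted 1 in 25 in low serum; 100 nL library stock added to about 40 µL; 0% = median of neutral wells and 100% = positive control level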
PD-1 reverse act = activators reversing PD-1 mediated T-cell inhibition; primary human CD4 T cells, PD-L1 beads, CellTiter-Glo 96 h; activation, % (no concentration beside the values); 29,000 tested, under 10 active; AID 2316;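 active = replicate mean of 50% or more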;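 note: 0% = median vehicle wells and 100% = positive control; 100 nL library stock added to about 50 µL; numbers are from one replicate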
An asterisk follows results filed as active; ? = inconclusive; nt = no result given. Some of the compounds tested. The share of hits here may be higher or lower than overall.

nr | Compound | MITF inhib | YB-1 expr inh | Hedgehog inh | PD-1 reverse act
1 | CN1CCC(=C2c3ccccc3Sc3ccccc32)CC1 | -9 | -0.16 | 52 | nt
2 | Cc1nc(NCCN2CCOCC2)c2sc3nc4c(cc3c2n1)COC(C)(C)C4 | -13 | -0.12 | nt | 1.8
3 | C[C@@H]1CN([C@H](C)CO)C(=O)c2cccc(NC(=O)Nc3ccc(F)cc3)c2O[C@@H]1CN(C)C(=O)Nc1ccccc1 | -5 | -0.064 | -9 | -0.3
4 | O=C(CSc1nnc(-c2cccnc2)n1-c1ccccc1)Nc1ccc(Oc2ccccc2)cc1 | 48 | nt | nt | 1.3
5 | Cc1ccc(S(=O)(=O)Nc2ccc3c(c2)C(=O)N([C@H](C)CO)C[C@@H](C)[C@@H](CN(C)Cc2ccc(C(F)(F)F)cc2)O3)cc1 | 14 | 0.2 | 10 | -1.6
6 | C[C@@H]1CN([C@H](C)CO)C(=O)c2cccc(NC(=O)Nc3cccc4ccccc34)c2O[C@@H]1CN(C)S(C)(=O)=O | -5 | 0.0091 | 26 | 2.1
7 | Cc1ccc(NC(=O)c2ccc(CSc3ncnc4nc[nH]c34)cc2)cc1 | -58 | 0.11 | 14 | 0.0
8 | COc1ccccc1C1CCN(C(=O)c2cccs2)CC1 | -8 | 0.068 | 17 | -0.4
9 | CCC(=O)Nc1ccc(S(=O)(=O)Nc2cccnc2)cc1 | 3 | nt | nt | 2.2
10 | CSc1sc(C(=O)NN)cc1-c1nc(C)cs1 | 4 | 0.4 | 5 | 0.0
11 | COc1ccc(CN(C)C[C@H]2Oc3c(NS(=O)(=O)c4cn(C)cn4)cccc3C(=O)N([C@@H](C)CO)C[C@H]2C)cc1 | -3 | 0.17 | 2 | 1.6
12 | COc1ccc(S(=O)(=O)N(C)C[C@@H]2Oc3c(NC(=O)NC(C)C)cccc3C(=O)N([C@H](C)CO)C[C@@H]2C)cc1 | 2 | -0.46 | -20 | 0.0
13 | CNC[C@@H]1Oc2c(NC(=O)C3CCCCC3)cccc2C(=O)N([C@@H](C)CO)C[C@@H]1C | -3 | 1.2 | -92 | 2.6
14 | O=S(=O)(Nc1ncccn1)c1ccc(NC(=S)Nc2ccc(F)c(Cl)c2)cc1 | 5 | nt | nt | 2.3
15 | O=C(CCn1cnc2ccccc2c1=O)Nc1ccc(Cl)c(Cl)c1 | 9 | nt | nt | -0.5
16 | C[C@H](CO)N1C[C@H](C)[C@@H](CN(C)S(=O)(=O)c2cn(C)cn2)Oc2ccc(NC(=O)Cn3cnnn3)cc2C1=O | -5 | 0.23 | -37 | 1.7
17 | COc1ccc(/C=C2\CC/C(=C\c3ccc(C)cc3)C2=O)cc1 | -7 | -0.54 | nt | 0.5
18 | Cc1noc(C)c1S(=O)(=O)Nc1ccc2c(c1)CC(=O)N([C@H](C)CO)C[C@@H](C)[C@H](CN(C)CC1CC1)O2 | -6 | -0.0072 | 1 | nt
19 | CC1=CS(=O)(=O)CC1Sc1nc2ccccc2[nH]1 (stereo not drawn) | 8 | -0.31 | -18 | -0.1
20 | CCCN1CCC2(CC1)C(C#N)=C(S)NC(=O)C2C#N (stereo not drawn) | 4 | -0.02 | -7 | 4.9
21 | O=C(NCCN1CCOCC1)C(=O)NCC1COc2ccccc2O1 (stereo not drawn) | -20 | nt | nt | 1.7
22 | COc1cc(OC)c(-c2c(OC)cc(OC)cc2OC)c(OC)c1 | -2 | -0.04 | -39 | nt
23 | CC(Oc1ccc(Br)cc1)c1nc(-c2ccccn2)no1 (stereo not drawn) | -97 | nt | nt | 1.0
24 | CC(C)[C@H](N)C(=O)N[C@@H](Cc1c[nH]c2ccccc12)C(=O)O | -1 | 0.12 | -29 | nt
25 | CC1(C)[C@@H](OC(=O)CCC(=O)O)CC[C@]2(C)[C@H]3C(=O)C=C4[C@@H]5C[C@@](C)(C(=O)O)CC[C@]5(C)CC[C@@]4(C)[C@]3(C)CC[C@@H]12 | -4 | 0.38 | -43 | 1.8
26 | Cc1ccc(Cl)c(OCC(O)Cn2cnc3ccccc32)c1 (stereo not drawn) | -42 | nt | nt | -2.2
27 | C[C@H](CO)N1C[C@H](C)[C@H](CN(C)CC2CC2)Oc2ccc(NS(=O)(=O)c3cccs3)cc2C1=O | -5 | -0.053 | -5 | 1.7
28 | C[C@H](CO)N1C[C@H](C)[C@H](CN(C)S(=O)(=O)c2cccs2)Oc2ccc(NC(=O)c3ccncc3)cc2C1=O | -7 | -0.46 | -6 | -1.8
29 | C[C@@H]1O[C@@H](O[C@@H]2C=C(CO)[C@H]3[C@H](O[C@@H]4O[C@H](CO)[C@@H](O)[C@H](O)[C@H]4O)OC=C[C@H]32)[C@H](O)[C@H](O)[C@H]1OC(=O)/C=C/c1ccccc1 | -20 | -0.15 | -12 | 1.5
30 | Cc1ccc(C)c(-n2nnnc2SCC(=O)Nc2c(C)n(C)n(-c3ccccc3)c2=O)c1 | 18 | nt | nt | 0.1
31 | COc1ccc(CN(C)C[C@H]2Oc3ccc(NC(=O)Nc4c(C)noc4C)cc3CC(=O)N([C@@H](C)CO)C[C@@H]2C)cc1 | 1 | -0.15 | -5 | nt
32 | COc1c(O)c(C(=O)/C=C\c2ccccc2)c(OC)c(OC)c1OC | -35 | -0.39 | -20 | -2.8
33 | C[C@@H]1CCCCO[C@@H](CN(C)S(=O)(=O)c2ccc(Cl)cc2)[C@@H](C)CN([C@H](C)CO)C(=O)c2cc(NS(=O)(=O)c3cccs3)ccc2O1 | 20 | 0.38 | 49 | -7.7
34 | CC(=O)Nc1ccc(S(=O)(=O)N(C)CC(=O)O)cc1 | -10 | nt | nt | 2.2
35 | COc1ccc(NC(=O)N(C)C[C@H]2Oc3ccc(NC(=O)Nc4ccc(C(F)(F)F)cc4)cc3CC(=O)N([C@@H](C)CO)C[C@@H]2C)cc1 | -10 | -0.26 | nt | -1.4
36 | C[C@@H]1CN([C@@H](C)CO)C(=O)c2cccc(NC(=O)c3nc4ccccc4s3)c2O[C@@H]1CN(C)CC1CC1 | 2 | 3 | ? | -1.0
37 | Cn1c(SCC(=O)Nc2ccccc2C(F)(F)F)nnc1-c1ccco1 | -15 | nt | nt | 0.5
38 | Cc1ccc(-n2c(C)nnc2SCC(=O)Nc2ccc(Br)cc2F)cc1 | 1 | nt | nt | -1.0
39 | CCOC(=O)c1c(NC(=O)c2cc(S(=O)(=O)N3CCOCC3)ccc2OC)sc2c1CCC2 | 4 | nt | nt | 0.3
40 | C[C@@H]1CN([C@@H](C)CO)C(=O)c2cc(NC(=O)Nc3ccc(C(F)(F)F)cc3)ccc2O[C@@H]1CN(C)C(=O)Nc1ccc(C(F)(F)F)cc1 | 50 | -0.077 | 31 | -5.9
41 | C[C@@H]1CN([C@@H](C)CO)C(=O)Cc2cc(NS(=O)(=O)c3cccs3)ccc2O[C@@H]1CN(C)S(=O)(=O)c1ccc(Cl)cc1 | -12 | 0.11 | 17 | nt
42 | C[C@H]1CN([C@@H](C)CO)C(=O)c2cccc(NS(=O)(=O)c3ccc(Cl)cc3)c2O[C@H]1CN(C)S(=O)(=O)c1ccc(F)cc1 | -1 | 0.2 | 55 | 1.6
43 | Cc1ccc(S(=O)(=O)N(C)C[C@H]2Oc3ccc(NC(=O)Nc4ccc(C(F)(F)F)cc4)cc3CC(=O)N([C@@H](C)CO)C[C@@H]2C)cc1 | 16 | -0.48 | -2 | -0.4
44 | Cc1ccc(S(=O)(=O)Nc2cccc3c2O[C@@H](CN(C)C(=O)Nc2ccc(F)cc2)[C@H](C)CN([C@@H](C)CO)C3=O)cc1 | 3 | 0.18 | -2 | 1.3
45 | CC(=O)NC(=O)NCc1ccccc1 | 4 | -0.16 | nt | 1.5
46 | CC(C)(C)c1cc(-c2cccs2)c(C#N)c(SCC(=O)Oc2ccccc2)n1 | -6 | -0.36 | 65* | -32
47 | COc1ccc(CN(C)C[C@H]2OCCCC[C@@H](C)Oc3ccc(NC(=O)Nc4ccccc4)cc3C(=O)N([C@H](C)CO)C[C@@H]2C)cc1 | 10 | 0.083 | -24 | 0.2
48 | COc1cccc2c1C(=O)CC(c1ccccc1)O2 (stereo not drawn) | 5 | -0.2 | -8 | 2.4

Arranged by count of non-hydrogen atoms (smallest number first): part of the list above.
nr | Compound | MITF inhib | YB-1 expr inh | Hedgehog inh | PD-1 reverse act
45 | CC(=O)NC(=O)NCc1ccccc1 | 4 | -0.16 | nt | 1.5
41 | C[C@@H]1CN([C@@H](C)CO)C(=O)Cc2cc(NS(=O)(=O)c3cccs3)ccc2O[C@@H]1CN(C)S(=O)(=O)c1ccc(Cl)cc1 | -12 | 0.11 | 17 | nt
43 | Cc1ccc(S(=O)(=O)N(C)C[C@H]2Oc3ccc(NC(=O)Nc4ccc(C(F)(F)F)cc4)cc3CC(=O)N([C@@H](C)CO)C[C@@H]2C)cc1 | 16 | -0.48 | -2 | -0.4
47 | COc1ccc(CN(C)C[C@H]2OCCCC[C@@H](C)Oc3ccc(NC(=O)Nc4ccccc4)cc3C(=O)N([C@H](C)CO)C[C@@H]2C)cc1 | 10 | 0.083 | -24 | 0.2

Other records:
nr | Compound | MITF inhib | YB-1 expr inh | Hedgehog inh | PD-1 reverse act
49 | NC(=O)NCCc1ccccc1 | -11 | 0.38 | nt | 0.8
50 | COC(=O)c1c(NC(=O)C2CC(=O)NN2Cc2ccccc2)sc(C)c1C (stereo not drawn) | -16 | nt | nt | -2.6
51 | Cc1nn(C(C)(C)C)c(NC(=O)c2ccccc2)c1C#N | 3 | -0.52 | 3 | 1.1
52 | C[C@H]1CN([C@@H](C)CO)C(=O)c2cc(NS(=O)(=O)c3cccs3)ccc2O[C@@H]1CN(C)C(=O)Nc1ccccc1 | 7 | 0.063 | nt | nt
53 | COc1ccc(NC(=O)COc2ccc(Br)cc2Cl)c([N+](=O)[O-])c1 | -23 | nt | nt | 3.7
54 | C[C@@H]1CN([C@H](C)CO)C(=O)Cc2cc(NC(=O)CCC(F)(F)F)ccc2O[C@H]1CN(C)C | -1 | -0.24 | -14 | -0.4
55 | Cc1ccc(S(=O)(=O)Nc2cccc3c2O[C@H](CN(C)C(=O)NC2CCCCC2)[C@@H](C)CN([C@H](C)CO)C3=O)cc1 | -6 | 0.081 | -57 | nt
56 | Cc1ccc(S(=O)(=O)Nc2ccc3c(c2)C(=O)N([C@H](C)CO)C[C@H](C)[C@@H](CN(C)Cc2ccc(Cl)c(Cl)c2)OCCCC[C@@H](C)O3)cc1 | 24 | 0.24 | 19 | nt
57 | CN1C(=O)C(C(=O)NC(C)(C)C)C2CC1(C)Oc1ccccc12 (stereo not drawn) | 15 | 0.0026 | -33 | 1.5
58 | COc1ccc(S(=O)(=O)N(C)C[C@@H]2Oc3ccc(NC(=O)NC(C)C)cc3CC(=O)N([C@@H](C)CO)C[C@@H]2C)cc1 | -14 | 0.12 | 4 | 3.5
59 | O=C(CC(=O)c1ccccc1O)c1ccccc1 | -25 | -0.25 | -45 | nt
60 | C[C@H](CO)N1C[C@H](C)[C@@H](CN(C)S(=O)(=O)c2cn(C)cn2)Oc2c(NS(=O)(=O)c3ccc(Cl)cc3)cccc2C1=O | -9 | 0.16 | 15 | 2.1
61 | C[C@H]1CN([C@@H](C)CO)C(=O)Cc2cc(NC(=O)Cn3cnnn3)ccc2O[C@H]1CN(C)Cc1ccc(Oc2ccccc2)cc1 | -6 | -0.17 | -6 | nt
62 | C[C@@H]1CN([C@H](C)CO)C(=O)c2cc(NS(=O)(=O)c3cn(C)cn3)ccc2O[C@H]1CN(C)Cc1ccc(Cl)c(Cl)c1 | 11 | 0.3 | -6 | 0.5
63 | CN(CC(=O)Nc1ccc(C(N)=O)cc1)S(=O)(=O)c1ccc(F)cc1 | -32 | nt | nt | 3.0
64 | N#Cc1c(C(F)(F)F)cc(-c2ccc(Br)cc2)nc1SCCC(=O)O | 51 | nt | nt | -0.2
65 | C[C@@H]1CN([C@H](C)CO)C(=O)Cc2cc(NC(=O)C3CC3)ccc2O[C@H]1CN(C)S(=O)(=O)c1cccs1 | 6 | -0.33 | -19 | -0.9
66 | CC(C)NC(=O)Nc1ccc2c(c1)C(=O)N([C@@H](C)CO)C[C@@H](C)[C@@H](CN(C)Cc1ccc(C(F)(F)F)cc1)O2 | -16 | 0.35 | -20 | 2.4
67 | C[C@H]1CN([C@@H](C)CO)C(=O)c2cccc(NC(=O)C3CCCCC3)c2O[C@H]1CN(C)C(=O)Nc1ccc(C(F)(F)F)cc1 | 10 | 0.46 | -6 | -2.2
68 | C[C@@H]1CN([C@H](C)CO)C(=O)c2cccc(NC(=O)c3cnccn3)c2O[C@H]1CN(C)C(=O)Nc1ccccc1 | -5 | -0.13 | -11 | 0.7
69 | Cc1noc(C)c1S(=O)(=O)N(C)C[C@@H]1Oc2ccc(NS(=O)(=O)c3cn(C)cn3)cc2CC(=O)N([C@H](C)CO)C[C@@H]1C | 8 | -0.2 | -15 | 1.9
70 | CC(=O)Nc1cccc(OCC(=O)N(C)c2ccccc2)c1 | 11 | nt | nt | 0.9
71 | C[C@@H]1CN([C@H](C)CO)C(=O)c2cccc(NC(=O)Nc3ccccc3)c2O[C@H]1CN(C)Cc1ccc2c(c1)OCO2 | 27 | -0.45 | -16 | nt
72 | COc1ccc(NC(=O)CN2C(=O)c3cccc4cccc2c34)cc1OC | 38 | nt | nt | -0.4
73 | CCOC(=O)c1cnc2c(C)c(Cl)ccc2c1NCCCN1CCOCC1 | -6 | nt | nt | -4.2
